# PINK1 modulator – PINK1 expression modulation; PINK1 immunofluorescence, high-content cytometry, 24 h; Potency, µM (highest dose often 76.6 µM), without a hit: at the top dose activation (PINK1 increase), actives largely listed as activators; hit rate 0.2% among 410,000; AID 624263; active = well fitted activation curve with a large enough effect; inconclusive = small, poorly fitted or top-dose-only effect; inactive = flat fitted curve, though single readings scatter; cell line not stated here;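 further: potency means the concentration at half of the fitted maximal effect; % of control where 0% means no effect; nearly all actives have a fitted effect of over 65% in size; a mitochondrial uncoupler was the plate control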
#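 Measures PINK1 amount and localization on or inside mitochondria by immunofluorescence. Stable cells get compounds at 5 concentrations for 24 hours before fixation and staining; CCCP controls included.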
# CtBP-E1A inh – inhibitors of CtBP/E1A interaction; AlphaScreen GST-E1A/His-CtBP binding, 1536-well; stronger effect = lower value; control for the full effect not named in the record; activity change, % (test concentration not listed); hit rate 0.49% among 340,000; AID 651724; in the data active means activity change below about -65%; inconclusive means about -30% to -65%; inactive means above about -30%; further: on the % scale 0 is the no-effect control and ±100 the full control effect; compound concentration not given in the record
#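 In 5 uL wells, 23 nL compound meets equimolar GST-E1A and His-CtBP (5X stock 125 nM each) for 2 h, 37 °C. Beads (5X, 50 ug/mL) then 1 h, 37 °C, dark.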
# Six1-Eya2 blk – Six1/Eya2 interaction inhibition | AlphaScreen GST-Six1/His-Eya2 binding, biochemical; stronger effect = lower value; control for the full effect not named in the record | hit rate 0.56% among 360,000 | activity change, % (concentration not given with the values); in the data active = activity change below about -65%; inconclusive = about -30% to -65%; inactive = above about -30%; further: on the % scale 0 is the no-effect control and ±100 the full control effect
# Target sequence (O00167 whole entry, looked up): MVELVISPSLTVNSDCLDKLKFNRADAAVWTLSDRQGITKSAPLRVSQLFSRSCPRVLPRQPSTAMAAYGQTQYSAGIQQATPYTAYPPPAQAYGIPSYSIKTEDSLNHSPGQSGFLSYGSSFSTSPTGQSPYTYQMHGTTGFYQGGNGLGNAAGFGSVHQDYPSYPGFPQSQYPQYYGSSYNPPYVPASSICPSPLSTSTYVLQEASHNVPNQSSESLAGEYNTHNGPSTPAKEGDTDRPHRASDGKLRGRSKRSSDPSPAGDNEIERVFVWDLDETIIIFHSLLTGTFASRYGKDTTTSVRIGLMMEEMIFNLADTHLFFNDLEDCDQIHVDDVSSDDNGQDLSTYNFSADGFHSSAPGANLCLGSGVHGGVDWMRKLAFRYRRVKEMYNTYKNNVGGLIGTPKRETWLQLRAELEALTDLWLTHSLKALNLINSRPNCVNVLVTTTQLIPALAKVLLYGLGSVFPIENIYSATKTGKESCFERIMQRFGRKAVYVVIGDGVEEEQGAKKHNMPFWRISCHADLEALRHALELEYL
# Target sequence (Q15475 whole entry, looked up): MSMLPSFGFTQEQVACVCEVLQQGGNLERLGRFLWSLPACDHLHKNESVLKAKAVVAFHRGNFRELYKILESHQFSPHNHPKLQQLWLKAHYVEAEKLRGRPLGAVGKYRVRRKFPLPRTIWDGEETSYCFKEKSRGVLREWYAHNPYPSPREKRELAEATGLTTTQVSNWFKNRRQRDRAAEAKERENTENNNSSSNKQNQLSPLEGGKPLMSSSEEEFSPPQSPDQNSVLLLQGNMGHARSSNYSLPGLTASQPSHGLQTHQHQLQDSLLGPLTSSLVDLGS
#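 GST-Six1 + His-Eya2 (5X stock: 250/500 nM); Tris pH 8.0, 300 mM NaCl, 0.05% BSA, 0.02% Tween 20; GSH donor/Ni acceptor beads; 1 h 37 °C dark; AlphaScreen readout.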
# TRPML1 ag – agonists of human TRPML1 channel | Q9GZU1 | TRPML1-expressing cells, Ca2+ dye fluorescence, FDSS; host cell line not named in the record; reference of the full effect not given here | activation, % (concentration not given with the values) | hit rate 0.12% among 410,000 | AID 624414; in the data active = activation above about 50%; inconclusive = about 30% to 50%; inactive = below about 30%; further: 0% is about no effect; the text of the record puts the active cut at 80%
#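 Calcium fluorescence on an FDSS kinetic reader gave the read-out. Tet-induced TRPML1-DL cells were plated overnight, dye-loaded (Ca8 with quencher, 45-90 min, room temperature, dark), then read 110 s after compound addition, and again 110 s after 4uM final 54-4 (EC80).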
# D2 ag – agonists of human D2 dopamine receptor (beta-arrestin); P14416; DiscoveRx PathHunter D2 beta-arrestin, luminescence, 90 min; 100% = 57 uM dopamine signal; activation, % (no concentration beside the values); hit rate 0.084% among 360,000; in the data active = activation above about 40%; inconclusive = about 15% to 40%; inactive = below about 15%; further: compound concentration not given in the record; the text of the record calls up to 30% inactive
#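 DiscoveRx PathHunter D2 beta-arrestin cells (2,100/well) attached overnight, then compound-stimulated 90 min at 37 C in HBSS/10 mM HEPES/0.1% Tween-20 buffer; beta-galactosidase complementation read by luminescence after 1 h at ambient temperature. Dopamine 57 uM final (EC100) as control.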
# TRPML1 inh – human mucolipin-1 channel inhibition | hit rate 0.02% among 390,000 | TRPML1-inducible cells, Ca2+ dye fluorescence, FDSS; stronger effect = lower value; inhibition of EC80 agonist-evoked calcium signal | Q9GZU1 | activity change, negative = inhibition, % (no concentration beside the values); in the data active means activity change below about -50%; inconclusive means about -30% to -50%; inactive means above about -30%;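 further: stimulus is agonist 54-4 at its EC80 concentration; on the % scale 0 is the no-effect control and ±100 the full control effect; compound concentration not given in the record; the text of the record puts the active cut at -80%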
#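 Tet-induced TRPML1-DL cells loaded with Ca8 no-wash calcium dye were read kinetically on FDSS. Compound addition was followed by EC80 agonist 54-4 (4 uM final); inhibition was read over 110 s.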
# An asterisk follows results filed as active; ? = inconclusive; nt = not tested or not shown; [ ] = remark or other dose. Random draw from the library, and some 1% of all compounds hit somewhere here.
# Start of the listing, in advance, 5 compounds:
SMILES,PINK1 modulator,CtBP-E1A inh,Six1-Eya2 blk,TRPML1 ag,D2 ag,TRPML1 inh
O=C(CN1CCC(O)(c2ccc3c(c2)OCO3)CC1)N1CCOCC1,nt,10,3,-0.4,-0.2,6
Cc1ccccc1-c1nnn(CC(=O)Nc2sc3c(c2C#N)CCC(C(C)(C)C)C3)n1 (centres undefined),-5.3%,nt,nt,0.3,nt,-3
CCCNS(=O)(=O)c1ccc(NC(=O)Cc2cccs2)cc1,0.3%,1,-2,0.2,-2.5,38
CCCNc1c(NS(=O)(=O)c2ccc(Br)cc2)c(=O)oc2ccccc12,-1.4%,7,2,0.7,-1.0,2
CC1=CC(=O)C=C(C)C1=NOc1ccccc1[N+](=O)[O-],1.9%,11,8,1.9,?,10

# All compounds of this part, repeating the preview:
SMILES,PINK1 modulator,CtBP-E1A inh,Six1-Eya2 blk,TRPML1 ag,D2 ag,TRPML1 inh
O=C(CN1CCC(O)(c2ccc3c(c2)OCO3)CC1)N1CCOCC1,nt,10,3,-0.4,-0.2,6
Cc1ccccc1-c1nnn(CC(=O)Nc2sc3c(c2C#N)CCC(C(C)(C)C)C3)n1 (centres undefined),-5.3%,nt,nt,0.3,nt,-3
CCCNS(=O)(=O)c1ccc(NC(=O)Cc2cccs2)cc1,0.3%,1,-2,0.2,-2.5,38
CCCNc1c(NS(=O)(=O)c2ccc(Br)cc2)c(=O)oc2ccccc12,-1.4%,7,2,0.7,-1.0,2
CC1=CC(=O)C=C(C)C1=NOc1ccccc1[N+](=O)[O-],1.9%,11,8,1.9,?,10
CN(CC(=O)Nc1ccccc1Br)C(=O)COc1cccc2c1OC(C)(C)C2,-0.2%,8,3,-0.4,-1.3,5
CC(C)NC(=O)C(=O)NCc1ccccn1,0.7%,2,8,0.0,-3.6,1
N#Cc1c(-c2ccccc2)cc(-c2cccs2)nc1SCC(=O)O,-2.6%,-6,-9,0.2,-2.4,10
Cn1nc(C(C)(C)C)cc1C(=O)NN1CCOCC1,2.0%,7,9,0.0,-1.2,-3
C/C(=N\NC(=O)c1c(Br)c(C)nn1C)c1cccc(NC(=O)c2ccccc2F)c1,8.2%,-2,1,2.3,-3.6,-9
COc1ccc(NC(=S)NCc2ccco2)c(OC)c1,1.1%,2,6,1.7,-5.1,28
O=[N+]([O-])c1ccc(N/N=C/c2c[nH]c3ccccc23)cc1,-0.7%,-16,-26,?,-8.5,-9
COc1cccc(-n2nc(C(=O)N3CCN(Cc4ccccc4)CC3)c3ccccc3c2=O)c1,0.1%,-14,-4,3.5,4.7,-7
O=C(NC1CCCc2ccccc21)c1ccccc1Cl (centres undefined),-2.7%,1,5,-1.2,1.3,2
CC(=O)N1CCN(c2ccc(N=Cc3c(O)n(Cc4ccccc4)c(=O)[nH]c3=O)cc2)CC1,-1.9%,0,5,0.4,-0.9,8
Cc1ccc(NC(=O)COC(=O)[C@H](C)NC(=O)c2ccccc2)cc1S(=O)(=O)N1CCOCC1,2.8%,-6,10,0.8,-6.9,-2
Cc1cc(C(=O)CN2c3cccc4cccc(c34)S2(=O)=O)c(C)n1C,3.6%,-6,-9,0.2,-1.8,-3
CC1(C)CC(=O)C(C=NCC2CCN(C(=O)Cc3ccccc3)CC2)=C(O)C1,0.2%,0,7,?,-4.9,-10
Cc1nc2ccccc2n1Cc1ccccc1,1.9%,nt,3,nt,2.8,nt
O=C(Nc1ccc(Br)cc1)c1cc(S(=O)(=O)N2CCc3ccccc32)ccc1F,4.9%,nt,nt,0.7,nt,-4
O=C(NCc1cccnc1)C1CCN(Cc2cc3ccccc3n2Cc2cccc(Cl)c2)CC1,?,nt,nt,1.9,nt,-7
COc1cccc(CNc2ccccn2)c1O,-1.1%,-5,5,0.7,-1.6,37
CN(C)C(=S)Nc1ccc(S(=O)(=O)N2CCCCC2)cc1,3.0%,0,-19,0.4,-4.1,3
COCCNC(=S)NC(=O)CC12CC3CC(CC(C3)C1)C2,2.5%,-10,7,1.1,-2.5,-17
CCN(C(=O)COC(=O)/C=C/c1cnc2ccccc2n1)c1ccccc1,4.5%,-25,0,0.5,-8.4,2
CCCCN1C(=O)C(C)=C(C)C1OCCc1ccc(OC)c(OC)c1 (centres undefined),0.0%,-1,-1,0.9,-2.0,25
O=C(Nc1ccc(-c2ccccc2)cc1)c1ccco1,-0.1%,2,-1,-0.5,-0.8,2
O=C(NCC(c1ccco1)S(=O)(=O)c1cccs1)c1ccc(C(F)(F)F)cc1 (centres undefined),6.3%,nt,nt,-0.9,nt,0
Cc1nc(CNS(=O)(=O)c2cccs2)cs1,0.3%,nt,21,0.7,11,-15
CC(=O)Nc1c(-c2ccccc2)c2cc(Br)ccc2[nH]c1=O,2.9%,5,5,-0.4,-3.8,16
O=C(COC(=O)C1CC2C=CC1C2)Nc1ccc([N+](=O)[O-])cc1 (centres undefined),17%,5,-4,0.2,2.7,-2
COc1ccc(C(=O)COC(=O)c2nn(C)cc2Cl)cc1,2.6%,-11,-8,1.0,-1.4,48
Fc1ccc(/C=N/Nc2nccnc2Cl)cc1,0.7%,-6,-2,-0.2,-3.7,0
Cc1ccc2c(c1)[C@H]1[C@H](CO2)[C@H](c2ccccc2)[C@]2(C)C(=O)Nc3ccc(F)cc3C(=O)N12,5.2%,-3,-7,-0.5,-1.4,4
O=C(CC(SCc1ccco1)c1ccc(O)cc1)c1cccs1 (centres undefined),-1.5%,-6,-14,3.5,-4.5,-4
Cc1ccc2cc(CN(CCO)Cc3nnnn3Cc3ccc(F)cc3)c(=O)[nH]c2c1,-0.6%,6,4,-0.5,-2.2,-15
Cc1cccc(OCc2n[nH]c(=S)n2C2CCCCC2)c1,13%[38.3 µM],7,-3,1.1,0.9,-7
CCC1CN(C)C2Cc3c([nH]c4ccccc34)C(=O)CC1C2C(=O)OC (centres undefined),0.9%,0,21,0.3,-3.2,-5
CCC1CCCCN1C(=O)CSc1nnc(-c2ccco2)o1 (centres undefined),-0.3%,8,1,-0.1,-2.8,-23
O=C(COC(=O)c1cc(F)c(F)cc1Cl)NC1CC1,3.5%,6,9,-0.1,-0.9,35
COC(=O)c1sc(S(=O)(=O)NCCCN(C)C)c(C(=O)OC)c1C,-0.8%,-3,-11,-1.0,-6.3,0
CN(c1ccccc1)S(=O)(=O)c1ccc(C(=O)NCc2ccccn2)cc1,0.5%,1,7,-0.6,-3.6,-4
Cc1ccc(OCCOCCOc2ccc(Br)cc2/C=N\NC(=O)c2ccncc2)cc1,?,-10,-12,0.6,0.8,5
O=C(CCN1CCN(C/C=C/c2ccccc2)CC1)Nc1cccc(F)c1,-0.6%,-12,-7,1.9,1.6,-1
CN(C)C(=O)CCc1ccc2c3c([nH]c2c1)[C@]1(C)[C@@H](C(=O)N2CCOCC2)C[C@H](CC(=O)NCCC2=CCCCC2)C(=O)N1CC3,-0.4%,2,0,-0.7,-2.0,-8
Cn1cccc1-c1nc2ccc(NC(=O)c3ccc([N+](=O)[O-])cc3)cc2[nH]1,16%,-27,?,1.2,1.0,4
O=C(Cn1c(=O)ccc2cc(S(=O)(=O)N3CCCC3)ccc21)NCc1ccc(Cl)cc1,-5.0%,nt,nt,0.3,nt,1
Cc1ccc(S(=O)(=O)N(CC(=O)Nc2cccnc2)c2cc(Cl)ccc2C)cc1,4.3%,nt,nt,0.4,nt,-15
Cc1cc(C)n2nc(-c3ccc(F)cc3)cc2n1,-0.7%,1,5,-0.5,-2.8,23
Cc1cc(C)cc(OCC(=O)OCC(=O)NC2CCCCCCC2)c1,1.5%,8,10,-0.1,-3.1,-10
O=C(NCc1ccccc1Cl)c1cnccc1C(F)(F)F,1.3%,-4,3,-0.3,-5.2,13
Cc1ccc(NC(=O)c2ccc(Cl)c(N3C(=O)C=CC3=O)c2)cc1,-1.7%,-7,2,2.7,-3.3,-1
CCOc1ccc(NC(=S)NC(=O)c2c(Br)cnn2C)c([N+](=O)[O-])c1,6.3%,-1,-19,5.1,-4.9,2
COc1ccc(C(=O)Nc2ccncc2)cc1[N+](=O)[O-],0.1%,10,-7,0.0,-4.8,-8
CCOc1ccccc1C(=O)NCC(=O)NCCc1ccc(S(N)(=O)=O)cc1,2.6%,-10,-1,0.2,-1.8,-5
Cc1nn(CC(=O)NCc2ccccc2F)c(C)c1[N+](=O)[O-],1.0%,54,30,3.3,2.4,-12
Cc1cc(OC(=O)c2cc(Br)ccc2Cl)c([N+](=O)[O-])c(=O)[nH]1,2.2%,2,4,-0.6,1.6,7
CCc1ccc(C(=O)NNC(=O)CCC2CCCCC2)cc1,2.5%,1,-1,0.1,-3.6,-9
O=C(CN1CCCCCC1)NCCc1ccc(F)cc1,1.5%[38.3 µM],3,5,0.1,-0.8,-5
CCCC/C(C)=N/NC(=O)CN(c1ccc(Br)cc1)S(=O)(=O)c1ccccc1,2.1%,-12,6,1.1,-2.9,4

# (listing goes on)
SMILES,PINK1 modulator,CtBP-E1A inh,Six1-Eya2 blk,TRPML1 ag,D2 ag,TRPML1 inh
Cc1ccc(-n2c(=O)c3sccc3n(CC(=O)NC3CCCCC3)c2=O)cc1,-0.8%,5,4,nt,1.2,nt
Cc1cc(=O)n(CC(=O)O)c2ccccc12,3.6%,9,1,-0.5,-7.0,12
CCOc1ccc(S(=O)(=O)NNC(=O)c2cc3ccccc3o2)cc1,1.4%,8,5,1.4,1.5,-3
Cn1c(Cn2nnc(-c3ccccc3)n2)nnc1SCc1ccccc1Cl,-2.7%[38.3 µM],5,0,-0.3,2.2,3
CCOC(=O)[C@H]1[C@H]2COc3ccc(OC)cc3[C@H]2N2C(=O)CNC(=O)[C@@]12C,0.6%,1,-4,-0.8,-0.5,27
CCCn1c(=O)c2sccc2n2c(CCCC(=O)NCc3ccccc3)nnc12,-0.5%,nt,nt,3.4,nt,-15
CCc1ccc(C2=NN(c3ccc(S(N)(=O)=O)cc3)C(c3ccc(F)cc3)C2)cc1 (centres undefined),-1.8%,37,29,0.0,-5.0,9
Cc1ccc(S(=O)(=O)CCN2CCC(O)(c3ccccc3)CC2)cc1,-1.2%,8,8,2.2,-0.1,14
COc1ccc(-c2ccc3c(c2)c(Sc2ccccc2)c(-c2ccccc2)n3C)cc1,1.7%,-1,7,-0.1,nt,nt
CCOCCCNc1nc(C(F)(F)F)nc2c1nnn2Cc1ccccc1Cl,6.1%,nt,-5,0.4,11,11
CC#CC(=O)NC1CCCN(C2Cc3ccccc3C2)C1 (centres undefined),-0.2%,nt,5,0.2,-2.3,-23
Cc1cc(=O)[nH]c(SCc2cccc(Br)c2)n1,2.4%,0,-24,1.1,-0.6,4
O=C(c1ccco1)N1CCN(c2ncccn2)CC1,0.3%,-2,0,0.3,-0.4,2
CC1CCN(C(=O)CSc2nnc(-c3ccccc3)o2)CC1,-0.4%,nt,nt,-0.8,nt,20
O=C(NCC(=O)N1CCN(C(=O)c2ccccc2)CC1)c1ccccc1,2.1%,6,10,0.1,-2.7,8
Cc1cccnc1NC(=O)C(C)Oc1ccccc1 (centres undefined),0.3%,0,5,4.3,-2.3,15
